ClpP mod: qHTS Assay for Activators of ClpP | ATP-dependent Clp protease proteolytic subunit (Bacillus subtilis (strain 168)), P80244 | purified B. subtilis ClpP, FRET peptide cleavage, 20 min | Potency, µM (highest dose often 57.5 µM), for the others: at the top dose activity change, negative = active | actives 1.9% (n = 340,000); active = well fitted falling curve with a large enough effect; inconclusive = small, poorly fitted or top-dose-only effect; inactive = no such curve, though single readings can be large or run the other way; further: potency means the concentration at half of the fitted maximal effect; the source files actives as falling curves though it sought activators and does not explain the sign; nearly all actives have a fitted effect of over 65% in size; many hits overshoot -100%
Target sequence (P80244 whole entry, looked up): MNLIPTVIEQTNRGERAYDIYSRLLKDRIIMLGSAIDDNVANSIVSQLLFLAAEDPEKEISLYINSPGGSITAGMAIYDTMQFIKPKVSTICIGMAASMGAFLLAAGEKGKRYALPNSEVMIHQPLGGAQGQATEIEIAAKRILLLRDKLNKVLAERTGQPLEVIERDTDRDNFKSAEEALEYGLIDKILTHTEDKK
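ClpP 10 microg/mL final, pH 8 Tris/KCl buffer with BSA, glycerol, Tween-20; compound pinned in; FRET-FV substrate; RT 20 min; Ex320/Em430; ΔFRET vs ADEP 5.8 microM, DMSO, no enzyme.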
gsp antag: gsp mutant antagonism. gsp-mutant cells, cAMP HTRF, 30 min; control for the full effect not named in the record. actives 0.4% (n = 340,000). Potency, µM (doses to about 76.9 µM), for the others: at the top dose activity change, negative = inhibition, hits mostly inhibitors; active = falling curve of any shape with a large fitted effect; inconclusive = falling curve, mostly with a smaller effect; inactive = flat or rising curve; cell line not stated here;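 further: intracellular cAMP measured with PDE inhibitor Ro 20-1724 present during compound exposure; potency means the concentration at half of the fitted maximal effect; on the % scale 0 is the no-effect control and ±100 the full control effect; nearly all actives have a fitted effect of over 65% in size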
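G418-selected cells were plated in DMEM/10% FBS for 16-24 h at 37C, then treated with compounds plus the PDE inhibitor […] (300 uM solution added) for 30 min at 37C. Intracellular cAMP was measured by HTRF after 30 min lysis at room temperature.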
TRPV1 PAM: enhances activation of the human vanilloid receptor TRPV1 | actives 0.02% (n = 320,000) | TRPV1-expressing cells, Fluo-8 calcium influx, capsaicin EC20 potentiation; host cell line not named in the record; control for the full effect not named in the record | AID 540277 | Q8NER1 | potentiation, % at 8.33 µM; active means potentiation above 80%; inconclusive means 30% to 80%; inactive means below 30%; further: 0% is about no effect
Target sequence (Q8NER1 whole entry, looked up): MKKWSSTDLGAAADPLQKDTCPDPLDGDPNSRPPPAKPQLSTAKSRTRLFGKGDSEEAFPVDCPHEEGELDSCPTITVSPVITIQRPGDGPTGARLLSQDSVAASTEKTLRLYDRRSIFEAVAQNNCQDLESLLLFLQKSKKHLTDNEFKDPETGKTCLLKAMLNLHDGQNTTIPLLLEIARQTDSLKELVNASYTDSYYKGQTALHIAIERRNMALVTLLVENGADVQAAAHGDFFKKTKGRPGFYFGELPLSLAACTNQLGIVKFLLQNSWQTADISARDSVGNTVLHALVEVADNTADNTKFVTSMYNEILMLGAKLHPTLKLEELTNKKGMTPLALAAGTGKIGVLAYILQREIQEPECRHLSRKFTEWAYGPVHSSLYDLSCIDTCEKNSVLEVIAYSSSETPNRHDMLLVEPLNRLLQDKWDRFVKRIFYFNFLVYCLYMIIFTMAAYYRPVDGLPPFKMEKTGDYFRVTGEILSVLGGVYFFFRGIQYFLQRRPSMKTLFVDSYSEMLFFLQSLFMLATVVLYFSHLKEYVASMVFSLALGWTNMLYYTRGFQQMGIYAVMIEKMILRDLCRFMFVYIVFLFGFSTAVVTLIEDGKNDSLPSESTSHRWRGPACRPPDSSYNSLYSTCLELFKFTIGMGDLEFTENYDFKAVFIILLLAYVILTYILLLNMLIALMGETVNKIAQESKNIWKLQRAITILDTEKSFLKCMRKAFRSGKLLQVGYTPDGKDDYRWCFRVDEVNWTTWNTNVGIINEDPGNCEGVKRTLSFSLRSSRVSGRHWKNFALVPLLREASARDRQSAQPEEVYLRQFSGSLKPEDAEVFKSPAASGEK
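TRPV1-expressing cells were cultured overnight at 35.5C and loaded with Fluo-8 calcium dye for 40 to 90 min at room temperature. After a 10 s baseline, compound was added and calcium influx was read kinetically for 3 min (ex 480/em 520 nm).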
Menin MLL FP FL: displaces fluorescein MLL peptide from human menin. FP activity change, % at 61.4 µM. Fluorescence polarization, fluorescein-MLL peptide displacement from menin. 290,000 tested, under 10 active. AID 1766; inconclusive = falling polarisation curve, or a change in total fluorescence; inactive = total fluorescence flat and polarisation flat or rising; no compound was filed as active; the % refers to the polarisation; negative = inhibition;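 further: % of control where 0% means no effect; inhibitors lower the polarisation; unlabelled MLL peptide was the positive control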
gsp agonist: activates gsp, the McCune-Albright syndrome mutation. gsp mutant cells, cAMP HTRF, 30 min; control for the full effect not named in the record. Potency, µM (titrated, usually from 76.9 µM), for the others: at the highest dose activation (cAMP increase), usual class: activators. actives 0.13% (n = 340,000). AID 624287; active = well fitted activation curve with a large enough effect; inconclusive = small, poorly fitted or top-dose-only effect, or another doubt; inactive = no such curve, though single readings can be large or run the other way; cell line not stated here;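 further: phosphodiesterase inhibitor Ro 20-1724 added with compounds to block cAMP breakdown; potency means the concentration at half of the fitted maximal effect; nearly all actives have a fitted effect of over 60% in size; about a fifth of the inactives were tested at one dose only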
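Cells in DMEM/10% FBS with G418 were pretreated with compounds in DMSO plus […] (300 uM stock) for 30 min at 37C. cAMP was measured by HTRF (cAMP-d2 plus anti-cAMP antibody-K) after 30 min at room temperature.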
Sfp inh: inhibitors of Bacillus subtilis Sfp phosphopantetheinyl transferase. Q9F4F7. Biochemical Sfp PPTase activity, qHTS. Potency, µM, for the others: max response, negative = inhibition, most hits filed as inhibitors. actives 3.5% (n = 310,000). AID 1490; active means well fitted inhibition curve with a large enough effect; inconclusive means small, poorly fitted or top-dose-only effect, or another doubt; inactive means no such curve, though single readings can be large or run the other way;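 further: the enzyme is Sfp with the accession as filed and its product quenches rhodamine fluorescence; potency means the concentration at half of the fitted maximal effect; 0% = enzyme reaction without inhibitor and -100% = no enzyme wells; top concentration of the series not given in the record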
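With Hepes-Na pH 7.6 buffer containing 10 mM MgCl2, Sfp (15 nM) modified BHQ-2-YbbR (12.5 uM) using rhodamine-CoA (5 uM). Two reads 30 minutes apart at 525/598 nm yielded each well's rate.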
D2 PAM: human D2 receptor positive allosteric modulation | DiscoveRx D2 beta-arrestin cells, luminescence, 90 min; 100% = 57 uM dopamine signal | potentiation, % (test concentration not listed) | actives 0.23% (n = 360,000); active = potentiation of 50% or more; inconclusive = 30% to 50%; inactive = 30% or less;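 further: compound concentration not given in the record; tested on top of an EC20 dose of dopamine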
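PathHunter D2 cells, attached overnight at 37 deg C, received compound in DMSO plus dopamine at EC20 (50 nM final) for 90 min at 37 deg C. Beta-arrestin recruitment was read as luminescence after 1 h with detection reagent at ambient temperature.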
An asterisk follows results filed as active; u = inconclusive; x = no result given; [ ] = remark or other dose. Hits appear at their usual frequency. Share with any hit: about 5.1%.

Below each compound – ClpP mod, gsp antag, TRPV1 PAM, Menin MLL FP FL, gsp agonist, Sfp inh, D2 PAM
- Cc1ccc(CNC(=O)Nc2ccc3c(c2)N(C)C(=O)CS3)cc1
    x, u, -7, 2.0, 11%[15.4 µM], 7%, -6
- Cc1c(-c2ccccc2)cn2c1-c1ccc(C)n1CC2
    -22%, 3%, x, u, -3%, -9%, -12
- CC1(C)CC(=O)c2cnc(N3CCN(c4ccccc4)CC3)nc2C1
    -1.6%, 6%, -1, 2.4, 5%, 2%, 2
- CC(C)(C)S(=O)c1cccs1 (stereo not given)
    1.0%, 1%, 8, 0.5, -65%[inhibitor], 4%, 4
- Cc1cc(F)ccc1S(=O)(=O)N1CCCOC1CNC(=O)C(=O)NC1CCCC1 (stereo not given)
    0.8%, 10%, 6, x, -17%[15.4 µM], 1%, -7
- CCOc1ccc(N2C(=O)CSC23CCCCC3)cc1
    1.1%, -10%, -11, -1.2, -25%, 3%, 14
- O=C(CN1C(=O)C2CC=CCC2C1=O)Nc1ccccc1N1CCCC1 (stereo not given)
    0.4%, u, 4, x, 7%, x, -17
- CC(=O)C1=C(O)C(=O)N(Cc2ccccc2)C1c1ccc(Br)cc1 (stereo not given)
    x, -8%, -13, 4.4, 40%, 11%, 0
- COc1cc(CNCCO)cc(Br)c1OCc1ccccc1
    1.9%, 16%, -13, -1.6, u, 10%, -11
- Cc1c(N2CCCC2)cc2c(c1N)C(C)(C)CC2(C)C
    1.0%, -6%, -6, 4.0, -9%[15.4 µM], 12%, 10
- Cc1cc(N=Cc2c(O)n(-c3ccc(C)c(C)c3)c(=O)c3ccccc23)no1
    x, x, -4, 13, x, -15%, x
- CCN(CC)Cc1cc(C(=O)O)c(-c2ccccc2)o1
    -3.5%, 8%, 6, 0.5, -7%, 6%, -6
- CC(C)(C)NC(=O)C(=O)NNC(=O)C12CC3CC(CC(C3)C1)C2
    x, 8%, 20, -1.1, -15%[15.4 µM], 2%, -10
- Cc1ccc(S(=O)(=O)Oc2ccc(/C=N/NC(=O)c3nn(C)cc3[N+](=O)[O-])cc2)cc1
    -1.2%, -21%, -3, 1.1, 3%[15.4 µM], -3%, 6
- CCSc1nnc(NC(=O)CN(C)S(=O)(=O)c2ccc(F)cc2)s1
    -5.4%, -2%, 4, -0.3, -76%[inhibitor], 3%, -11
- CC(C)(C)C(=O)CC(=O)Nc1ccc(Cl)c(N)c1
    -3.1%, 3%, 0, -0.1, -38%[inhibitor], 11%, -14
- CCc1ccc(OCCCC(=O)O)c(Br)c1
    -2.2%, -14%, 12, -0.5, -22%, 13%, -18
- COC(=O)c1ccc(C(=O)N(CCN(C)C)c2nc3c(Cl)cccc3s2)cc1
    -2.5%, 2%, u, -3.7, -10%, -17%, -19
- O=C(Nc1ccccc1C(=O)NCc1ccco1)NC1CCCCC1
    20µM*, 5%, 5, 1.3, 15%, 1%, -14
- CC(Cc1ccccc1)NC(=O)/C=C/c1ccc([N+](=O)[O-])cc1 (stereo not given)
    1.0%, 3%, -18, 6.5, 4%[15.4 µM], -14%, -7
- COc1ccccc1N/N=C/c1c(CO)cnc(C)c1O
    -21%, -12%, 4, 1.0, 6%, -18%, 5
- CCOC(=O)C(NC(=O)c1cccnc1)(Nc1cccc(C)n1)C(F)(F)F (stereo not given)
    -13%, 2%[15.4 µM], -3, 3.7, 5%, 21%, 2
- Cc1ccc(CN(C(=O)c2csnn2)C(C(=O)NC2CCCC2)c2ccccn2)cc1 (stereo not given)
    x, -1%, 15, -0.9, -13%, 15%, -4
- CCc1cccc(NC(=O)CCSCCC(=O)Nc2cccc(CC)c2)c1
    -0.1%, -21%, 1, 2.8, -6%, 21%, -29
- Cc1cnc(C(=O)Nc2ccc(C)c(S(=O)(=O)N3CCCCCC3)c2)cn1
    0.7%, -16%, -17, x, -13%, x, 21
- NNC(=O)CN1C(=O)Nc2ccc(Cl)cc2C1c1ccccc1 (stereo not given)
    0.9%, -10%, 20, -0.5, -18%, 8%, 4
- COc1cccc(CN(C)C(=O)c2cccnc2SC)c1OC
    -3.2%, 4%, 7, -0.6, u, 16%, -3
- COc1ccc(Cl)cc1NC(=O)CN(C)C(=O)CCCNC(=O)c1ccc(Cl)cc1
    0.8%, -18%, -2, x, u, x, -11
- Cc1ccc(S(=O)(=O)NNC(=O)C23CCC(CC2)C3)cc1
    -0.7%, x, x, x, 14%, x, -5
- COc1ccc(CNC(=O)C2CC(=O)N(c3ccc(OCC(=O)N4CCCCC4)cc3)C2)cc1 (stereo not given)
    -3.2%, -5%, 11, 2.3, -1%, 7%, 0

4 successive compounds out of the list so far:
Below each compound – ClpP mod, gsp antag, TRPV1 PAM, Menin MLL FP FL, gsp agonist, Sfp inh, D2 PAM
- Cc1ccc(CN(C(=O)c2csnn2)C(C(=O)NC2CCCC2)c2ccccn2)cc1 (stereo not given)
    x, -1%, 15, -0.9, -13%, 15%, -4
- CCc1cccc(NC(=O)CCSCCC(=O)Nc2cccc(CC)c2)c1
    -0.1%, -21%, 1, 2.8, -6%, 21%, -29
- Cc1cnc(C(=O)Nc2ccc(C)c(S(=O)(=O)N3CCCCCC3)c2)cn1
    0.7%, -16%, -17, x, -13%, x, 21
- NNC(=O)CN1C(=O)Nc2ccc(Cl)cc2C1c1ccccc1 (stereo not given)
    0.9%, -10%, 20, -0.5, -18%, 8%, 4

(continued)
Below each compound – ClpP mod, gsp antag, TRPV1 PAM, Menin MLL FP FL, gsp agonist, Sfp inh, D2 PAM
- COc1ccc(C(=O)Nc2ccc(C(=O)Nc3nccs3)cc2)cc1[N+](=O)[O-]
    45%, 4%, -2, 4.0, 12%, 4%, -2
- CC1(C)NC(=O)N(CC(=O)Nc2ccc(-c3ccccc3)cc2)C1=O
    1.0%, x, x, x, -25%, x, 11
- O=C(NNC(=O)C1CC1c1ccccc1)c1ccccc1[N+](=O)[O-] (stereo not given)
    0.8%, 9%, 8, 2.8, 8%, 11%, -8
- Cc1ccc(NC(=S)NNc2ccc([N+](=O)[O-])cc2S(=O)(=O)Nc2ccccc2C(=O)O)cc1C
    -1.8%, -9%, -5, 9.5, 27%, 40µM*, 5
- Cc1ccsc1/C=C(\C#N)C(=O)NC1CCS(=O)(=O)C1 (stereo not given)
    2.1%, -4%, 8, 3.7, -27%, 16%, -12
- O=C(NCC1(c2ccccc2)CCCC1)C(=O)NCC1(c2ccccc2)CCCC1
    1.3%, 9%, -3, 6.3, -5%, 18%, -16
- COc1ccccc1Nc1nc(N)nc(CSC(=S)N2CCN(c3ccccc3)CC2)n1
    -1.9%, -10%, 5, 1.2, 0%, 10%, -1
- CC(OCCN1CCCC1)(c1ccc(F)cc1)c1ccc(F)cc1
    0.3%, 22%, 6, -1.5, 2%[15.4 µM], 4%, -11
- O=C(O)COCC(=O)Nc1ccc2c(c1)ncn2CCc1ccccc1
    -1.1%, 8%, 2, 4.0, 21%[15.4 µM], 9%, -2
- Cc1ccccc1OCC(=O)N1CCCc2ccccc21
    x, -13%, 0, -6.6, -1%[15.4 µM], -7%, 3
- COc1ccc(NC(=O)CCCC2CCCCC2)c(OC)c1
    -2.5%, -1%, 26, x, 9%, -3%, -13
- Cc1cc(C)n(/N=C/c2ccc(O)cc2)c(=O)c1C#N
    x, x, -3, -3.3, -1%[15.4 µM], 10%, -10
- CCN1CCN(c2ccc(S(=O)(=O)N3CCOCC3)cc2NC(=O)c2cc(F)c(F)c(F)c2F)CC1
    -1.2%, x, x, x, u, x, 2
- COc1ccccc1C(=O)N1CCN(c2cccc(C(F)(F)F)c2)CC1
    0.6%, -14%, -8, -0.2, 14%, -2%, -18
- COc1ccc(OCCN2C(=O)c3ccccc3C2=O)c([N+](=O)[O-])c1
    -1.7%, -7%, -3, x, 10µM*, 2%, -9
- COc1ccc(NC(=O)c2ccccc2NC(=O)c2ccccc2C(=O)O)c(OC)c1
    -2.5%, 2%, 6, 4.1, -29%, 11%, -4
- Cc1cc2ccccc2c(=O)n1CC(=O)Nc1ccc2c(c1)OCO2
    -22%, 2%, 4, 6.8, -40%[inhibitor], 2%, 20
- O=C(O)/C=C\C(=O)NNC(=O)c1cc(-c2ccccc2)n[nH]1
    x, 6%, x, 7.0, 9%[15.4 µM], 50µM*, -5
- COc1ccc(NC(=O)Cc2nnc(SCC(=O)NC3CCCC3)n2C)cc1
    x, 4%, 13, -4.3, -1%, 14%, -11
- Cn1c(Cl)c(C(=O)Nc2ccccc2)c2ccccc21
    -1.9%, -24%, 4, 5.4, -29%, -7%, -8
- COc1cccc(OCc2nc(-c3ccc(Br)o3)no2)c1
    x, 2%, 2, -0.7, 5%[15.4 µM], 3%, 7
- CN(CC(=O)Nc1cccc(F)c1)C(=O)c1ccccc1OCC(=O)Nc1cccc(C(F)(F)F)c1
    u, u, 2, x, -13%, x, -12
- CCOC(=O)C1=C(COC(=O)c2ccc3ccccc3c2O)NC(=O)NC1C (stereo not given)
    4.6%, -4%, 7, x, 17%, x, -2
- CC(C)OCCCNC(=O)C(=O)NCCCOC(C)C
    -3.3%, 13%, x, 2.9, 6%, 9%, -8
- COC(=O)[C@H](Cc1ccccc1)NC(=O)N1CC(C)OC(C)C1 (stereo not given in full)
    -1.5%, 2%, 3, -2.2, -2%, 10%, -16
- Cc1cc(NC(=O)CSc2nc3sc4c(c3c(=O)n2C)CCCC4)no1
    -0.5%, 5%, 27, 2.6, 0%, 0%, -15
- O=C(NC1=NCCS1)c1ccccc1OCc1ccc(F)cc1
    x, 8%, -3, -0.4, 16%[15.4 µM], 3%, -5
- CCCCCC/C=C/c1ccc(OC)c([C@H]2[C@H]3C=CC[C@@H](C)[C@@H]3C(=O)N2Cc2ccccc2)c1
    -1.3%, -5%, 2, 2.8, x, 11%, -9
- CCOC(=O)C1=C(C)NC(=S)NC1c1ccc(OCC(=O)N2CCCCC2)cc1 (stereo not given)
    x, -4%, -15, 3.5, 35%, -4%, -7
- O=C(NCCN1C(=O)CSC1=O)c1ccccc1
    -0.7%, -1%, 2, 9.7, 10%, -4%, -6
- Cc1nnc2c(NCCc3ccccc3)nc3ccccc3n12
    -23%, 20%, -15, 8.6, 16%, 8%, -1

Compound activity: PubChem BioAssay, National Center for Advancing Translational Sciences (NCATS)
